Screening results from PubChem BioAssay.
Vaccinia Venus = qHTS for Stage-Specific Inhibitors of Vaccinia Orthopoxvirus: Venus Reporter Primary qHTS; actives 0.46% (n = 330,000); Potency, µM (titrated, usually from 36.5 µM), for inactives: at the highest dose activity change, negative = inhibition, most hits filed as inhibitors; Vaccinia virus Venus reporter expression, fluorescence; active means well fitted inhibition curve with a large enough effect; inconclusive means small, poorly fitted or top-dose-only effect; inactive means no such curve, though single readings can be large or run the other way; tested in A549 cells; also: nearly all actives have a fitted effect of over 30% in size; inactives centre near -10
VACV mCherry inh = qHTS for Stage-Specific Inhibitors of Vaccinia Orthopoxvirus: mCherry Reporter Primary qHTS | actives 0.63% (n = 310,000) | Potency, µM (top dose mostly 36.5 µM), without a hit: at the top dose activity change, negative = inhibition, most hits filed as inhibitors | AID 720579, 2013 | Vaccinia virus mCherry reporter infection, fluorescence; about a quarter of the inactives have no number; active = well fitted inhibition curve with a large enough effect; inconclusive = small, poorly fitted or top-dose-only effect; inactive = no such curve, though single readings can be large or run the other way; tested in A549 cells; also: nearly all actives have a fitted effect of over 35% in size; inactives centre near -10
Active calls of the source: *; i = inactive; ? = inconclusive; nt = not tested or not shown; & = joins results of further samples; [ ] = another dose, or the depositor's remark. % is scaled to controls: 0 for no effect and ±100 for the full control effect; potency is read from the fitted curve at half-maximal effect.

SMILES	Vaccinia Venus	VACV mCherry inh
CC(C)CNC(=O)c1cccc(NC(=O)c2ccc(Cl)c([N+](=O)[O-])c2)c1	-9.8%	-9.2%
CCN1C(=NCCOC)N[C@@H](c2cccc(C(F)(F)F)c2)C(C(=O)OC)=C1C	-14.4%	-0.9%
FC(F)(F)c1ccc(N2CCN(Cc3ccc4c(c3)OCO4)CC2)nc1	-21.5%	i
Cc1ccc(C)c(Nc2nc3c(S(=O)(=O)c4ccc(Br)cc4)nnn3c3ccsc23)c1	?	?
CCN(CC(=O)Nc1ccccc1C(F)(F)F)C(=O)CCc1c(C)[nH]c(=O)c(C#N)c1C	-17.7%	-13.2%
O=C(CSc1nnc(CNC(=O)c2ccccc2F)o1)c1ccccc1	0.0%	0.1%
CCOc1cc(C(=O)Nc2ccc(-c3cn4cccnc4n3)cc2)cc(OCC)c1OCC	?	-24.6%
COc1ccc(C(=O)NCc2ccccc2)cc1S(=O)(=O)N1CCCc2ccccc21	-21.9%	?
O=C(Nc1ccc2c(c1)OCO2)c1ccc(Br)c(S(=O)(=O)N2CCCC2)c1	-23.8%	?
O=C(COC(=O)C1CC(=O)N(CCc2ccccc2)C1)c1ccc[nH]1 (configuration not stated)	-5.0%	-19.6%
O=C(c1cc(-c2ccccc2Cl)on1)N1CCCC1	-7.6%	i
Cc1cccc(NC(=O)c2nc[nH]c2C(=O)N[C@@H](C)C(=O)OCc2ccccc2)c1	-9.5%	i

Compound profiles (already shown):
CC(C)CNC(=O)c1cccc(NC(=O)c2ccc(Cl)c([N+](=O)[O-])c2)c1 across the screens: Vaccinia Venus: -9.8%; VACV mCherry inh: -9.2%
CCN1C(=NCCOC)N[C@@H](c2cccc(C(F)(F)F)c2)C(C(=O)OC)=C1C across the screens: Vaccinia Venus: -14.4%; VACV mCherry inh: -0.9%
FC(F)(F)c1ccc(N2CCN(Cc3ccc4c(c3)OCO4)CC2)nc1 across the screens: Vaccinia Venus: -21.5%; VACV mCherry inh: i

Later entries.
SMILES	Vaccinia Venus	VACV mCherry inh
CC12CCC(C(=O)NNc3ccc([N+](=O)[O-])cc3)(CC1=O)C2(C)C (configuration not stated)	-17.9%	-2.0%
O=C1/C(=C\c2cc3c(cc2Cl)OCO3)N2CCC1CC2	-9.3%	-23.6%
COC(=O)c1ccc2c(=O)n(CCCCCC(=O)NCc3ccccc3)c(=O)[nH]c2c1	-9.3%	i
COc1cccc(C(=O)N2CCCN(C)CC2)c1OC	-9.8%	i
COc1ccc(NC(=O)CCn2nc(-c3ccccc3OC)c3c(C)cc(C)nc32)cc1	-25.6%	?
COCC(=O)Nc1cc(C(=O)N2CCN(c3ccccc3)CC2C)c2c(c1)nc(-c1ccncc1)n2C (configuration not stated)	4.2%	-6.1%
Cc1cccc(-n2ccnc2CN2CCN(C(C)C)C(CCO)C2)c1 (configuration not stated)	-15.1%	-2.8%
COc1cc(NC(=O)CSc2nc3nc(C)c(Cc4ccccc4Cl)c(C)n3n2)cc(OC)c1	-5.6%	-10.1%
Cc1ccnc(NC(=O)C2CCN(S(=O)(=O)c3ccc(C)c(C)c3)CC2)c1	-9.7%	-13.1%
COc1ccc(OC)c(NS(=O)(=O)c2cc(OC)ccc2OC)c1	-5.9%	-5.9%
COc1ccc(C(=O)Nc2ccc(C)cc2C(=O)c2ccccc2)c(OC)c1	-19.3%	-18.2%
COCCN=C1N[C@@H](c2ccc(Br)cc2)C(C(=O)OC)=C(C)N1Cc1ccccc1	?	-9.9%

The final 3 entries of the part before open the next one.
SMILES	Vaccinia Venus	VACV mCherry inh
COc1ccc(OC)c(NS(=O)(=O)c2cc(OC)ccc2OC)c1	-5.9%	-5.9%
COc1ccc(C(=O)Nc2ccc(C)cc2C(=O)c2ccccc2)c(OC)c1	-19.3%	-18.2%
COCCN=C1N[C@@H](c2ccc(Br)cc2)C(C(=O)OC)=C(C)N1Cc1ccccc1	?	-9.9%
O=S(=O)(c1ccc2ccccc2c1)N1CCN(c2nc(-c3ccccc3)nc3ccccc23)CC1	-16.5%	-12.7%
CC(C)(C)OC(=O)C[C@@H]1C/C=C\C[C@H](CC(=O)N(CCO)Cc2ccccc2)C(=O)N[C@@H](Cc2ccccc2)COC1=O	-24.9%	-9.5%
CCCCn1c(N)c(N(CCC(C)C)C(=O)COC(=O)/C=C/c2ccc(F)cc2)c(=O)[nH]c1=O	-20.1%	-5.6%
Cc1ccc(CNC(=O)COc2ccc(C(=O)c3ccc(F)cc3)cc2)cc1	-22.7%	?
CCc1cnc2c(c1SCC(=O)N1CCC(C)CC1)c(=O)n(C)c(=O)n2C	-14.7%	-8.9%
COCCNC(=O)C1CCCN(Cc2cccc(C#N)c2)CC1 (configuration not stated)	14.9%	41.3%[activator]
COC(=O)c1cc(Br)c(=O)n(Cc2ccc(OC)c(OC)c2)c1	-29.8%	nt
COc1cc2cnc(CCCC#N)cc2cc1OC	-2.3%	-12.4%
COc1cc(C(=O)N/N=C/c2ccc(OC(=O)c3ccccc3Cl)c(OC)c2)ccc1O	-11.4%	-22.6%
CCN1CCCC1CNC(=O)C(=O)NC(C)C (configuration not stated)	-13.0%	-4.9%
O=C(O)CCN1C(=O)c2ccc(Oc3ccc([N+](=O)[O-])cc3)cc2C1=O	1.3%	-8.7%
O=C(CCC1N=C2c3ccccc3N=C(SCc3ccccc3F)N2C1=O)NCc1ccccc1 (configuration not stated)	-8.8%	-20.1%
CCOC(=O)Cn1c(=O)c(-c2cc(Br)ccc2N)nc2ccccc21	7.1%[7.34 µM]	3.5%[7.34 µM]
COc1ccc2nc3sc(C(=O)NCCCN4CCc5ccccc5C4)cc3cc2c1	-25.6%	?
COC(=O)c1ccc(NC(=O)COC(=O)C2CCC2)cc1	-10.1%	-20.0%
Cc1c(C(=O)O)oc2ccc(S(=O)(=O)N3CCC(C)CC3)cc12	-11.0%	nt
COc1cc(-c2nnn(CC(=O)NC3CCS(=O)(=O)C3)n2)ccc1OCc1ccccc1 (configuration not stated)	-27.2%	-11.9%
Cc1sc2ccccc2[n+]1CCCCI	-3.1%	-17.8%
Cc1ccccc1NC(=O)CSc1ccc(-c2cccs2)nn1	-6.5%	-7.8%
COc1ccc(NC(=O)CN2C(=O)c3cccnc3Sc3ccccc32)cc1OC	-8.6%	-7.1%
O=C(C1CCN(C2CC(=O)N(c3ccc(F)cc3)C2=O)CC1)N1CCOCC1 (configuration not stated)	-20.6%	nt
O=C1CC(c2ccccc2)C(C(=O)Nc2ccccc2F)N1 (configuration not stated)	0.2%	-5.5%
Cc1nc2ccccn2c1C(=O)NCc1ccc2c(c1)OCO2	-19.1%	-2.8%
COc1cc(/C=N/N(C)C)cc(Br)c1O	-12.7%	-7.7%

In another format: entries from further up.
COC(=O)c1ccc(NC(=O)COC(=O)C2CCC2)cc1
  Vaccinia Venus: -10.1%
  VACV mCherry inh: -20.0%

CCOC(=O)Cn1c(=O)c(-c2cc(Br)ccc2N)nc2ccccc21
  Vaccinia Venus: 7.1%[7.34 µM]
  VACV mCherry inh: 3.5%[7.34 µM]

More compounds
SMILES	Vaccinia Venus	VACV mCherry inh
COC(=O)c1c(NC(=O)C(C)C)sc2c1C(C(=O)OC)CC2 (configuration not stated)	-14.4%	i
CCN(c1cccc(C)c1)c1ncnc2nc[nH]c12	-15.5%	i
COc1cccc2c1OCC(C(=O)OCc1cccnc1)=C2	-5.7%	-13.7%
CC1=N/C(=C/c2cccnc2)C(=O)O1	6.9%	9.7%
Cc1ccc2c(c1)c1c(c(=O)n(Cc3ccccc3)c(=O)n1Cc1cccc(C(F)(F)F)c1)n2C	-7.8%	-1.0%
Cc1cnc(-n2ncc(C(=O)NCCN3CCOCC3)c2C(C)C)nc1-c1ccc(F)cc1	-2.0%	-2.6%
CCOC(=O)C(=O)C1=CN(Cc2ccccc2)C=C(C#N)C1	2.6%	-19.0%
c1ccc(Cc2nn3c(Cn4cnc5ccccc54)nnc3s2)cc1	-16.3%	-23.5%
O=C(CSc1ncccn1)NC1CCCc2ccccc21 (configuration not stated)	-5.9%	-8.3%
CCc1ccc(NC(=O)CSc2ncc(S(=O)(=O)c3cc(C)ccc3C)c(=O)[nH]2)cc1	-3.3%	7.6%
O=C(Nc1nnc(-c2ccccc2SCc2ccccc2)s1)Nc1ccccc1F	3.8%	-3.7%
O=C(NCc1ccc(F)cc1)c1cc(Sc2ccc(F)cc2F)nc2ccccc12	-13.7%	-9.5%
COc1ccc(N(CC(=O)NC2CCCC2)C(=O)Cn2nnc(-c3ccc(C)cc3)n2)cc1OC	-8.2%	-15.0%
CCOC(=O)c1cc([N+](=O)[O-])sc1NC(=O)CC	-10.9%	i
CCOc1cc(N2CCOCC2)c(OCC)cc1NC(=O)Cc1cccc(OC)c1	-8.1%	nt
COc1ccccc1OCC(=O)Nc1ccc(S(=O)(=O)Nc2cc(C)on2)cc1	5.0%	11.8%
CCCCN1C[C@H](C)[C@@H](CC(=O)NCc2ccccc2)C1=O	-4.2%&-14.7%	i
CC(C)OP(=O)(CCP(=O)(OC(C)C)OC(C)C)OC(C)C	0.0%	-14.0%
CC(C)(/C=N/O)/[N+]([O-])=C/c1ccco1	-19.9%	nt
O=C(Cn1ccc(NC(=O)OCc2ccccc2)nc1=O)NCc1nc2ccccc2[nH]1	-8.7%	i
COc1ccc(-c2cc(C(=O)N3CCCC3)no2)cc1OC	-12.3%	i
CC(=O)N(C(C)=O)n1c(/C=C/c2cccc([N+](=O)[O-])c2)nc2ccccc2c1=O	-6.1%	i
O=C(/C=C/c1ccc(Cl)cc1)N1CCN(c2ccc([N+](=O)[O-])c(N3CCOCC3)c2)CC1	-11.6%	i
Cc1ccc(NC(=O)CN2CCN(C(=O)c3ccco3)CC2)cc1S(=O)(=O)N(C)C	-9.0%	-2.8%
Cc1cc(C)cc(C(=O)N2CC(=O)Nc3ccc(C)cc3C2c2ccccc2)c1 (configuration not stated)	-27.2%	-28.9%
Cc1cc(C)cc(OCC(=O)Nc2ccc(-c3nc4ccccc4o3)cc2)c1	-17.6%	-21.7%
CCCCn1nnc(NC(=O)c2ccc(-c3ccccc3[N+](=O)[O-])o2)n1	-9.7%	i
CC(NS(=O)(=O)c1ccc(Cl)cc1)C(=O)Nc1ccc2c(c1)OCCO2 (configuration not stated)	2.8%	0.3%
Cc1nc(NCCc2cnc[nH]2)c2oc3ccccc3c2n1	-14.2%	i
Cc1nc(SCC(=O)Nc2ccccc2F)[nH]c(=O)c1Cc1ccccc1	5.7%	0.4%
COc1ccc(-c2csc(NC(=O)CN3C(=O)NC4(CCCC4)C3=O)n2)cc1	-11.2%	-14.5%
CCCOc1ccccc1OCC(=O)Nc1ccc(S(=O)(=O)N2CCCC2)cc1	-0.5%	-10.6%
COc1ccccc1S(=O)(=O)CC(O)COc1ccc(F)cc1Cl (configuration not stated)	-14.9%	i
Cc1ccc(CNC(=O)C2CCCN(S(=O)(=O)c3ccc(F)cc3)C2)cc1 (configuration not stated)	-17.2%	i
Nc1ccc2c(c1)Cc1cc(N)c(Cl)cc1-2	-13.9%	?
C[C@H](NC(=O)c1nc[nH]c1C(=O)N[C@@H](CCCCN)C(=O)OC(C)(C)C)C(=O)OCc1ccccc1	0.0%	i
COc1ccccc1C(=O)Nc1ccc(C(=O)c2ccccc2)cc1	-15.8%	-12.1%
CCOC(=O)c1c[nH]c2c(C)ccc(Cl)c2c1=O	-5.2%	-0.6%
Nc1nc(N)c2nc(CNc3ccc(C(=O)N[C@@H](CCC(=O)O)C(=O)O)cc3)cnc2n1	-1.4%	-13.1%
CCc1ccc(N(C(=O)CNC(=O)c2cccs2)C(C(=O)NC(C)(C)C)c2cc(OC)c(OC)c(OC)c2)cc1 (configuration not stated)	-3.3%	-7.0%
CCc1nc(SCc2ccc(Br)cc2)n[nH]1	-12.5%	-11.9%
CCN=C(NCC)SC1CC(=O)N(CCc2ccccc2)C1=O (configuration not stated)	-20.7%	i
COCCn1c(-c2ccccc2F)n[nH]c1=S	-5.9%	nt
COc1ccccc1CNC(=O)c1cc2cc(C)ccc2n1C	-3.8%	12.2%
COCCNc1ccc(-c2nc(-c3ccncc3)no2)cc1[N+](=O)[O-]	-2.7%	-3.3%
Cc1ccccc1NS(=O)(=O)c1cc(C(=O)N2CCCC2)ccc1Cl	-1.8%	i
COc1cc(Cn2c(-c3nonc3N)nc3ccccc32)ccc1C	?	?
CC(C)C(=O)N1CCN(c2ccc(NC(=O)c3ccc4c(c3)OCCO4)cc2)CC1	-0.4%	-1.2%
Cc1ccc(C(=O)N2C(=O)C(c3ccccc3)Oc3ccccc32)cc1 (configuration not stated)	?	?
Cc1ccc(C)c(CN2C(=O)c3ccccc3S(=O)c3ccc(C(=O)N4CCN(c5ccccn5)CC4)cc32)c1 (configuration not stated)	-3.6%	?
Cc1ccccc1Cn1nc(C)c(NC(=O)C2(C)CC2(Cl)Cl)c1C (configuration not stated)	0.2%	-11.0%
Cc1nc(Nc2ccc(Cl)cc2Cl)sc1C(=O)Nc1ccccc1	4.0%	i
Cc1ccc2oc3c(c(=O)c2c1)C(c1cccc(O)c1)N(c1ccccn1)C3=O (configuration not stated)	-11.7%	-11.1%
COCCn1nnnc1C(c1cc2cc(C)ccc2[nH]c1=O)N1CCc2ccccc21 (configuration not stated)	?	?
